# Bioassay records deposited in PubChem BioAssay by several laboratories.
# HIV fusion peptide: inhibitors of HIV fusion peptide binding, primary screen, biochemical, uHTS, fluorescence dequenching (AID 1986); one-dose inhibition, % at 20 µM; IC50 in µM for titrated hits; 290,000 tested, 0.3% active; cell-free peptide binding, fluorescence dequenching, 30 min; higher % means a stronger effect; in the data active means inhibition mostly above about 52%, no sharp cut-off; inactive means mostly below about 76%; further: some results filed as inactive read as strong as hits
# Yfh1-off respiration: mitochondrial function rescue without frataxin homolog – Friedreich's ataxia, plus single-dose screen, dose response (AID 1465); 220,000 tested, 0.074% active; S. cerevisiae Yfh1-off respiration, WST-1 reduction, 72 h; higher fold induction means a stronger effect; fold induction at 50 µM; hits with a dose series show EC50 in µM;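 active means fold induction of absorbance versus untreated yeast above a set limit, then at least 30% activation at any dose in follow-up; inconclusive means repeats straddling the limit, or above it without dose testing; inactive means fold induction below the set limit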;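 further: activators that raise dye reduction in frataxin-depleted yeast; strong numbers were not always called active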
# KOR agonists: kappa opioid receptor activators – cell-based, luminescence, uHTS, primary screen (AID 1777); KOR beta-arrestin recruitment, luminescence; higher % means a stronger effect; activation, % at 10 µM; hits with a dose series show EC50 in µM; 280,000 tested, 0.02% active; in the data active means activation above about 50%, passing the limit was not always enough; further: a part of the inactive calls stands beside numbers as strong as those of hits
# West Nile antiviral: inhibition of WNV-induced cytopathic effect – cell-based, CPE readout (AID 1621). 290,000 tested, 0.02% active. West Nile virus-infected cells, CPE inhibition; higher % means a stronger effect. CPE inhibition, % at 10 µM, or IC50 in µM where a hit was titrated; in the data active means a potency from the dose series; inconclusive means CPE inhibition mostly from about 3.7% at the one dose, without a potency; inactive means the rest, 99 in 100 with CPE inhibition below about 2.2%; further: strong numbers were not always called active
# AID2073: disruptors of CaV2.2 binding to Mint1 – biochemical, HTRF (AID 2073); HTRF protein-protein interaction, Mint1-CaV2.2; higher % means a stronger effect; inhibition, % at 20 µM, or IC50 in µM where a hit was titrated; 290,000 tested, 0.19% active; in the data active means inhibition mostly above about 51%, no sharp cut-off; inconclusive means no clear call, values can overlap the other calls; inactive means mostly below about 53%; further: some results filed as inactive read as strong as hits
# Dengue-2 NS5 capping: flavivirus cap methylation enzyme inhibition – biochemical, confirmation dose response, primary screen (AID 588689); Dengue-2 NS5 methyltransferase capping enzyme assay, biochemical; higher % means a stronger effect; 340,000 tested, 0.3% active; inhibition, % at 25 µM, or IC50 in µM where a hit was titrated; in the data active means a potency from the dose series; inconclusive means inhibition above about 29% without an active follow-up result
# Dengue-2 NS5 capping pilot replicate: recorded beside Dengue-2 NS5 capping, whose call it bears; inhibition, %; measured here: pilot screen replicate inhibition
# * = called active by the depositor; i = inactive; ? = inconclusive; · = no result given. The list is partial; rates above refer to the full screens.
SMILES,HIV fusion peptide,Yfh1-off respiration,KOR agonists,West Nile antiviral,AID2073,Dengue-2 NS5 capping,others
Cn1c(SCC(=O)NCc2ccc3c(c2)OCO3)nnc1-c1cc2ccccc2cc1O,-1.8%,i,2.5%,-1.3%,15.5%,-2.5%,Dengue-2 NS5 capping pilot replicate=-8.8
CCc1ccc(Cn2nnc(C(=O)NCc3ccccc3OC)c2N)cc1,2.5%,i,-5.8%,-0.7%,0.1%,-2.2%,
C=CCn1c(-c2ccc(Cl)cc2)ccc(C#N)c1=O,-0.7%,i,-1.4%,0.1%,0.9%,-3.6%,
COc1ccc(C(=O)OC2CCN(c3ncc(C(F)(F)F)cc3Cl)CC2)cc1,7.4%,i,1.9%,-0.4%,3.0%,-3.2%,
Cc1cc(C(=O)CSc2nnc(-c3ccc(Cl)cc3)n2C)c(C)n1CC1CCCO1 (stereo unspecified),-0.5%,i,-0.8%,0.1%,-10.7%,-4.1%,
O=C(c1ccc(Cl)cc1)c1cnc(-c2ccccc2)s1,-1.2%,i,4.9%,-0.8%,41.3%,-1.9%,
N#CC1=C(N)OC2=C(C(=O)CC(c3ccco3)C2)C1c1ccc(OCc2c(F)cccc2Cl)cc1 (stereo unspecified),18.6%,i,2.8%,0.6%,14.1%,1.4%,
N#Cc1cc2c(nc1SC1CCCCC1O)CCCC2 (stereo unspecified),2.5%,i,-2.4%,-0.3%,13.8%,-1.4%,
COCCCNC(=O)CCS(=O)(=O)Cc1ccc(C)cc1,0.5%,i,5.3%,-0.1%,-1.3%,-4.9%,
NNC(=O)c1cn2ccccc2n1,-2.0%,i,2.0%,-0.1%,-1.2%,-1.4%,
CC(=O)C(N=Nc1ccccc1)(Sc1nnc(-c2ccccc2)n1-c1ccccc1)C(C)=O,1.1%,i,0.0%,1.7%,12.7%,-0.7%,Dengue-2 NS5 capping pilot replicate=-3.0
O=C(/C=C/c1ccccc1)N1CCN(Cc2nc3ccccc3c(=O)[nH]2)CC1,-3.2%,i,0.4%,-0.1%,-3.7%,-0.3%,
CCOC(=O)N1CCN(C(=O)Cc2ccsc2)CC1,-0.6%,i,0.0%,0.5%,3.0%,0.4%,
COc1cc(Nc2nc(-c3ccccc3)c3cc(C)ccc3n2)cc(OC)c1OC,7.0%,·,1.6%,·,15.2%,-0.8%,
O=C(O)c1ccccc1-c1ccccc1C(=O)NCCCO,-0.2%,i,8.2%,0.5%,7.5%,0.0%,
Cc1oc2c(O)c(O)ccc2c(=O)c1-c1cnn(-c2ccccc2)c1,55.4%,i,-1.2%,-0.9%,-62.4%,3.3%,
CCOC(=O)c1c(C)n(C)c2ccc(OC)c(NC(=O)CN3CCN(Cc4ccccc4)CC3)c12,-1.6%,·,-2.2%,·,2.7%,-12.9%,
COc1ccc(OCCSc2nnnn2C2CCCCC2)cc1,0.1%,i,-2.0%,-0.3%,-3.4%,-7.4%,
COc1ccc(C(=O)NCC2OCCc3ccccc32)cc1 (stereo unspecified),-1.8%,i,-0.9%,0.5%,-5.5%,-7.2%,
COc1ccc(-n2nc(C(=O)NCC(=O)Nc3ccccn3)c3ccccc3c2=O)cc1Cl,1.5%,·,5.6%,·,-15.4%,8.8%,
Cc1cccc(Nc2ccccc2C(=O)OCC(=O)N2CCOCC2)c1C,0.2%,i,-0.7%,-0.6%,16.5%,0.0%,
COC(=O)c1cc(CSc2nc3ccc(C)cc3[nH]2)oc1C,0.1%,i,-1.1%,-0.4%,-15.7%,-7.8%,
CCCOc1ccc(-c2nc(OC)c3ccccc3n2)cc1,-1.7%,i,5.2%,-0.3%,9.0%,-7.5%,
Cc1ccc2c(c1)SC1=NC(c3ccccc3)(C(F)(F)F)NC(=O)N12 (stereo unspecified),1.0%,·,6.3%,·,20.3%,·,
COc1ccc(OCC(=O)N/N=C/c2ccc(O[C@@H]3O[C@H](CO)[C@@H](O)[C@H](O)[C@H]3O)cc2)cc1,2.2%,i,-2.8%,1.9%,-3.6%,-2.4%,
CCCCOc1ncnc2c1[nH]c1ccc(OC)cc12,-1.3%,i,-2.0%,-0.3%,8.3%,·,
CN(C)C(=O)COn1c(SCC(=O)N(C)C)nc2ccccc2c1=O,-1.3%,i,1.5%,0.1%,0.8%,-8.9%,Dengue-2 NS5 capping pilot replicate=1.5
O=C(O)CSc1nnc(Cn2c(=O)sc3ccccc32)n1-c1cccc(Cl)c1,-1.1%,i,2.0%,0.8%,-3.6%,-5.6%,
O=S(=O)(Nc1ccc(S(=O)(=O)N2CCCCC2)cc1)c1cccs1,0.4%,i,0.6%,0.3%,1.8%,0.0%,
CCC(C)NC(=O)CCC(=O)Nc1ccc2nc(N3CCOCC3)cc(C)c2c1 (stereo unspecified),-0.1%,i,-0.6%,-0.1%,-10.0%,-9.4%,

# Part of the list above in order of heavy-atom count, low to high.
SMILES,HIV fusion peptide,Yfh1-off respiration,KOR agonists,West Nile antiviral,AID2073,Dengue-2 NS5 capping,others
CCCCOc1ncnc2c1[nH]c1ccc(OC)cc12,-1.3%,i,-2.0%,-0.3%,8.3%,·,
COC(=O)c1cc(CSc2nc3ccc(C)cc3[nH]2)oc1C,0.1%,i,-1.1%,-0.4%,-15.7%,-7.8%,
O=S(=O)(Nc1ccc(S(=O)(=O)N2CCCCC2)cc1)c1cccs1,0.4%,i,0.6%,0.3%,1.8%,0.0%,
Cc1ccc2c(c1)SC1=NC(c3ccccc3)(C(F)(F)F)NC(=O)N12 (stereo unspecified),1.0%,·,6.3%,·,20.3%,·,
Cc1cccc(Nc2ccccc2C(=O)OCC(=O)N2CCOCC2)c1C,0.2%,i,-0.7%,-0.6%,16.5%,0.0%,
O=C(O)CSc1nnc(Cn2c(=O)sc3ccccc32)n1-c1cccc(Cl)c1,-1.1%,i,2.0%,0.8%,-3.6%,-5.6%,
CCC(C)NC(=O)CCC(=O)Nc1ccc2nc(N3CCOCC3)cc(C)c2c1 (stereo unspecified),-0.1%,i,-0.6%,-0.1%,-10.0%,-9.4%,
COc1ccc(-n2nc(C(=O)NCC(=O)Nc3ccccn3)c3ccccc3c2=O)cc1Cl,1.5%,·,5.6%,·,-15.4%,8.8%,

# As a short view, some entries already given.
SMILES,HIV fusion peptide,Yfh1-off respiration,KOR agonists,West Nile antiviral,AID2073,Dengue-2 NS5 capping,others
Cc1ccc2c(c1)SC1=NC(c3ccccc3)(C(F)(F)F)NC(=O)N12 (stereo unspecified),1.0%,·,6.3%,·,20.3%,·,
COc1ccc(OCC(=O)N/N=C/c2ccc(O[C@@H]3O[C@H](CO)[C@@H](O)[C@H](O)[C@H]3O)cc2)cc1,2.2%,i,-2.8%,1.9%,-3.6%,-2.4%,

# The list continues:
SMILES,HIV fusion peptide,Yfh1-off respiration,KOR agonists,West Nile antiviral,AID2073,Dengue-2 NS5 capping,others
O=C(Nc1cc(Sc2ccccn2)cc([N+](=O)[O-])c1)c1ccc(Cl)cc1,1.7%,i,0.7%,-0.4%,42.9%,-7.0%,
CCCn1nc2cc(C(=O)NCc3ccc(C)cc3)ccc2c1OCC,-2.6%,i,2.8%,0.7%,27.9%,-8.8%,
Cc1c(NC(=O)OCCNC(=O)Nc2ccccc2)sc(=S)n1C,0.3%,i,0.1%,0.1%,-31.8%,-11.7%,
O=C(NCc1ccco1)C(c1ccccc1)N(C(=O)Cc1cccs1)c1ccccc1F (stereo unspecified),-0.7%,i,5.0%,1.3%,3.0%,2.3%,
Cc1ccccc1NC(=O)N1C2CCC1CC(O)(c1cccnc1)C2 (stereo unspecified),-0.3%,i,-1.0%,-0.1%,-0.1%,0.0%,
Cc1ccc(C(=O)c2ccccc2C(=O)O)s1,1.8%,i,-0.9%,0.5%,-5.7%,2.4%,
O=C(Cn1cnc2cc(Cl)ccc2c1=O)Nc1ccc2c(c1)OCO2,-3.5%,i,0.8%,-0.1%,6.7%,10.2%,
CC(=O)N1CC(=O)N(OCc2ccccc2)C1c1ccc(Cl)cc1Cl (stereo unspecified),-3.7%,i,3.7%,-0.3%,-1.8%,0.7%,
COC(=O)C1C2CCC(C2)C1C(=O)OCC(=O)c1ccccc1 (stereo unspecified),-0.7%,i,5.0%,-0.5%,30.1%,-0.7%,
O=C(Nc1cc(C(F)(F)F)cc(C(F)(F)F)c1)c1ccc(Cn2cc(C(F)(F)F)ccc2=O)cc1,2.9%,i,6.1%,-0.5%,22.9%,-4.1%,
N#Cc1cc(-c2ccc(Cl)cc2)cnc1Sc1ccccc1,1.4%,i,2.6%,0.3%,20.8%,-4.0%,
CCOC(=O)Cc1csc(N/N=C/c2ccc(C(F)(F)F)cc2)n1,-1.8%,·,3.6%,·,8.3%,-4.2%,
CCOC(=O)c1[nH]c(C)c(C(=O)N2CCc3ccccc32)c1C,0.0%,i,1.7%,-0.1%,5.4%,-0.6%,
CCOC(=O)c1sc(C)c2c(=O)n(Cc3ccc(Cl)cc3)c(C)nc12,0.7%,i,2.1%,-0.8%,-0.4%,10.9%,
O=C(c1ccc(COc2ccccc2Br)o1)N1CCN(c2ccccn2)CC1,-3.0%,i,-2.3%,0.5%,1.0%,-2.6%,
O=C(CN1C(=O)C2C3C=CC(C3)C2C1=O)NC1CCCc2ccccc21 (stereo unspecified),1.6%,i,3.5%,-0.1%,-4.3%,-5.6%,
COCCN1C(=O)C(O)=C(C(=O)c2cccs2)C1c1ccccc1 (stereo unspecified),3.8%,i,3.3%,1.5%,29.3%,-3.9%,
COC(=O)c1c(C)n(-c2ccccc2)c2ccc(O)cc12,-1.3%,i,2.2%,1.2%,8.6%,1.0%,
CCCCN1C2=C(C(=O)CCC2)C(c2ccc(Cl)c(Cl)c2)C2=C1c1ccccc1C2=O (stereo unspecified),49.8%,i,-0.2%,-0.9%,-7.5%,18.8%,
O=C(c1ccc(Br)cc1)c1cc(-c2ccccn2)c(N2CCOCC2)s1,-0.6%,i,0.4%,0.7%,25.4%,-8.9%,
COC(=O)c1ccc2c(c1)C(C)(C)C(/C=C/c1ccc(OC)c(OC)c1OC)=[N+]2C,10.3%,i,4.4%,?,4.8%,-20.7%,
Cc1nnnn1-c1cccc(C(=O)O)c1,0.5%,i,-2.0%,-0.3%,-2.1%,-3.1%,
C1CCN(c2nc3nonc3nc2N2CCCC2)C1,-0.6%,i,-0.8%,0.6%,2.4%,-1.6%,
O=C(CSc1nccn1-c1ncc(C(F)(F)F)cc1Cl)c1ccc(Cl)cc1,-2.1%,i,5.8%,0.1%,-3.3%,-19.9%,
CCCn1nnc(NC(=O)c2cccc(Cl)c2)n1,-2.2%,i,2.4%,-0.1%,4.5%,0.0%,
CCCS(=O)(=O)N1CCCC(C(=O)NCCN(Cc2ccccc2)C(C)C)C1 (stereo unspecified),-4.4%,i,1.8%,-0.3%,-0.2%,1.1%,
COc1cc(-c2cc(-c3ccccc3)nc(SCC(=O)Nc3nccs3)c2C#N)cc(OC)c1OC,8.1%,i,-3.5%,0.4%,46.3%,5.5%,
O=c1c(-c2nc3ccccc3s2)cccn1Cc1ccc(Cl)cc1,1.5%,i,3.6%,-0.5%,15.9%,-10.8%,
CCC(=O)NC(=S)Nc1ccc(S(=O)(=O)NC(C)=O)cc1,0.9%,i,3.1%,0.2%,-0.8%,-7.5%,
Cc1nc(NS(=O)(=O)c2ccccc2)sc1NC(=O)OC(C)C,13.5%,i,2.7%,0.8%,-19.4%,0.7%,
O=C(Oc1c(Cl)cc(Cl)c2ccccc12)N1CCCC1,-3.0%,i,-1.5%,0.0%,-7.9%,-8.9%,
CC1(C)CC(=O)C2=C(C1)N(Cc1ccccc1)C(=O)C2(NC(=O)C(C)(C)C)C(F)(F)F (stereo unspecified),0.4%,i,-1.4%,-0.9%,-2.1%,4.8%,Dengue-2 NS5 capping pilot replicate=4.8
Cc1ccc(C(=O)n2cnnc2N)cc1,-1.2%,i,-2.2%,0.9%,1.4%,-12.3%,Dengue-2 NS5 capping pilot replicate=-0.5
COCCNC(=O)COC(=O)c1nsc(Cl)c1Cl,-1.4%,i,-3.1%,0.0%,-7.7%,-6.5%,
Cc1ccc2nc(CSc3nc(C)cc(C)c3C#N)[nH]c2c1,-0.3%,i,6.8%,0.8%,16.7%,-0.7%,
COc1cc(/C=N/NC(=O)c2cncc(Br)c2)ccc1OC(=O)c1ccc2c(c1)OCO2,-3.1%,i,-1.2%,0.6%,6.9%,·,
COc1cc2c(cc1NC(=O)Nc1ccccc1)oc1ccccc12,0.1%,i,5.0%,0.3%,5.5%,-7.5%,
